Screening data (PubChem BioAssay)
HPGD inh: HPGD (human) dehydrogenase inhibition. purified HPGD, NADH fluorescence kinetic, PGE2 substrate. Potency, µM, for inactives: at the highest dose activity change, negative = inhibition, usual class: inhibitors. 150,000 tested, 4.3% active; active = well fitted inhibition curve with a large enough effect (not every such curve was filed as active); inconclusive = small, poorly fitted or top-dose-only effect, or another doubt; inactive = no such curve, though single readings can be large or run the other way;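 further: top concentration of the series not given in the record; plate controls included wells without enzyme; inactives centre near -10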
Target sequence (P15428 whole entry, looked up): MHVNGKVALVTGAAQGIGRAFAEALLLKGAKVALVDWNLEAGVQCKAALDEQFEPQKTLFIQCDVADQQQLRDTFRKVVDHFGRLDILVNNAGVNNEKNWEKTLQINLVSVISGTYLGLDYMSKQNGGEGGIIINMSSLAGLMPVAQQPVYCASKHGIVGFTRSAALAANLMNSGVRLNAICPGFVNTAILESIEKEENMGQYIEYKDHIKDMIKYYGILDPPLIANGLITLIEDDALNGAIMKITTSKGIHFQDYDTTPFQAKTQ
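NADH formation kinetics: reaction with 30 uM PGE2 and 1 mM NAD+ (final), 20 nM enzyme, Tris-HCl pH 8 with Tween 20, after 15 min compound preincubation at room temperature. Fluorescence change, last versus first of five reads.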
Active calls of the source: *; ? = inconclusive; & = joins results of further samples. On the % scale 0 is the no-effect control and ±100 the full control effect; potency means the concentration at half of the fitted maximal effect. A portion of the library. The share of hits here may be higher or lower than overall.

| HPGD inh | Molecule |
| --- | --- |
| -16% | Cc1ccc(C)c2[nH]c(=O)c(CN(Cc3nnnn3C3CCCCC3)CC3CCCO3)cc12 (configuration not stated) |
| -8% | C=CCOc1ccc(CN(C)CC(=O)N(CC(C)C)c2c(N)n(CC(C)C)c(=O)[nH]c2=O)cc1 |
| -29% | COc1cccc(-c2cc(C(F)(F)F)nc(NCc3ccco3)n2)c1 |
| ? | CCCCCCc1cc2cc(S(=O)(=O)c3ccc(C)cc3)c(=O)oc2cc1O |
| -1% | CCOCCCN1CN(Cc2ccccc2)CNC1=S |
| -7% | O=C(Cc1cn2ccsc2n1)NCCc1ccc(F)cc1 |
| ? | Cc1ccc2nc(-c3cccc(N)c3)oc2c1 |
| -23% | CCc1ccc(OCC(=O)NCCN(C)C)c(Br)c1 |
| -11% | O=C(Nc1ccc2nc3n(c(=O)c2c1)CCCCC3)c1ccccn1 |
| -11% | O=[N+]([O-])c1ccc(N2CCN(CCOc3nonc3-c3ccccc3)CC2)c(Cl)c1 |
| -29% | O=c1c(-c2cc(F)cc(F)c2)nc2cnc(N3CCNCC3)nc2n1CCc1ccccc1 |
| ? | Cc1ccc2c(Cl)cc(Cl)c(OCC(=O)OCC(=O)Nc3ccc(C#N)cc3)c2n1 |
| -11% | COc1ccc(C(=O)N/C(=C\c2ccc3c(c2)OCO3)C(=O)NCCc2nc3ccccc3[nH]2)cc1 |
| 5% | Cc1ccc(SC(C)C(=O)Nc2ncn[nH]2)cc1 (configuration not stated) |
| -30% | Cc1ccc(O)c(NC(=O)C2CC(c3ccc(F)cc3)=NO2)c1 (configuration not stated) |
| -5% | C=C[C@]1(C)C[C@H](OC(=O)CO)[C@]2(C)C3C(=O)CC[C@]3(CC[C@H]2C)[C@H](C)[C@H]1O (some centres not stated) |
| -7% | OC(CNC1CCCc2ccccc21)COc1c(Cl)cccc1Cl (configuration not stated) |
| -11% | CC/C(O)=C1\C(=O)CC(c2ccccc2)CC1=NCCC(=O)O (configuration not stated) |
| 32µM* | CCc1nn(CCCC(=O)N2CCc3ccccc3C2)c(=O)c2cc3occc3n12 |
| -3% | O=C(NCCCN1CCOCC1)C1COc2ccccc2O1 (configuration not stated) |
| -5% | CC(C)(C)n1nnnc1CN1CCC(NC(=O)NC2CCCCC2)CC1 |
| -14% | O=C1CC(=O)N(CCc2ccccc2)C(=O)N1CCc1ccccc1 |
| ? | CCCNC(=O)COC(=O)c1cc2c(=O)n3ccccc3nc2s1 |
| -7% | C[C@H](NCCC(c1ccccc1)c1ccccc1)c1ccccc1 |
| -2% | O=C(/C=C/c1ccccn1)c1ccc(Br)cc1O |
| -15% | COc1ccc(CN(C(=O)c2nsc(Cl)c2Cl)C(C(=O)NC2CCCCC2)c2ccc(OC)cc2)cc1 (configuration not stated) |
| -10% | CC(=O)NC1(c2ccc(F)cc2)CCN(C(=O)Nc2ccc(F)cc2F)CC1 |
| ? | CCC(C)n1c(SCC(=O)Nc2cc(C(C)(C)C)nn2-c2ccccc2)nc2ccccc2c1=O (configuration not stated) |
| -8% | COc1cc(/C=C2\C(=O)N(C)C(=S)N2C)ccc1O |
| -10% | CCc1cccc(CC)c1NC(=O)C1SC(=Nc2ccccc2C)C(c2nc3ccccc3s2)=C1N (configuration not stated) |
| -4% | Cn1cc(Cl)c(C(=O)Nc2cnn(Cc3ccc(F)cc3)c2)n1 |
| -8% | CCn1c(NCc2cc(Br)ccc2NS(=O)(=O)c2ccc(C)cc2)nc2ccccc21 |
| -9% | O=[N+]([O-])c1cc(-c2nnc(Nc3ccc(O)cc3)c3ccccc23)ccc1N1CCOCC1 |
| -10% | CCOC(=O)COc1ccccc1-c1ccno1 |
| -8% | O=C(Nc1ccccc1C(=O)N/N=C/c1ccco1)c1ccc(F)cc1 |
| -22% | COCC(=O)/C=C1\Sc2ccccc2N1C |
| -1% | Cc1cc(C)nc(N2CCCC(C(=O)NCCc3cccc(F)c3)C2)n1 (configuration not stated) |
| -18% | CC(=O)c1ccc(-n2c(CCC(=O)O)ccc2-c2cccs2)cc1 |
| -22% | CCCn1c(=N)c(C(=O)NCc2ccc3c(c2)OCO3)cc2c(=O)n3cccc(C)c3nc21 |
| -10% | CC(C)(C)NC(=O)CN(Cc1cccnc1)C(=O)c1csnn1 |
| 10µM* | OC(CNc1nc2ccccc2s1)c1ccccc1 (configuration not stated) |
| -12% | Cc1cc(Nc2nc3ccccc3nc2Cl)n(-c2ccccc2)n1 |
| -14% | Cc1ccc(-n2c(C)cc(C(=O)NS(=O)(=O)c3ccc(C)cc3)c2C)cc1 |
| -5% | COc1ccc(-c2[nH]n(-c3ccc([N+](=O)[O-])cc3)c(=O)c2C=NCc2ccc(F)cc2)cc1 |
| 1% | COc1ccc(C(=O)NNC(=O)c2ccccc2[N+](=O)[O-])cc1 |
| -28% | CCCCCOC(=O)c1ccc(N2C(=O)C3C4C=CC(C4)C3C2=O)cc1 (configuration not stated) |
| -14% | CCCC(=O)Nc1cc(C)c(NC(=O)c2ccccn2)cn1 |
| -17% | Cc1cc(NS(=O)(=O)c2ccccc2)c(C)c(Cl)c1O |
| -3% | C=CCNC(=S)NNC(=O)c1cccn(Cc2cccc(Cl)c2)c1=O |
| -1% | Cn1c(=O)c2c(nc(NCCc3ccccc3)n2Cc2ccccc2)n(C)c1=O |
| -12% | CCOC(=O)c1[nH]c2ccc(C)cc2c1N=CN(CC)CC |
| -21% | C=CCc1ccc(OCc2ccc(C(=O)OC)o2)c(OC)c1 |
| -22% | COc1ccc([N+](=O)[O-])cc1NC(=O)COC(=O)Cc1cc(OC)c(OC)c(OC)c1 |
| -30% | CC(C)CSc1nnc2[nH]c(=O)cc(N)n12 |
| -17% | O=C(O)/C=C/c1cn(Cc2ccccc2)nc1-c1ccccc1 |
| -14% | O=C(CSc1nnc(COc2ccccc2)n1-c1ccccc1)c1cccs1 |
| -7% | O=C(N1CCOCC1)N1CCOCC1 |
| -3% | COC(=O)C1=C(C)N(CC(C)C)C(=O)C1 |
| 13µM* | c1ccc2c(c1)OCC(c1nnc3n1-c1ccccc1SC3)O2 (configuration not stated) |
| -22% | Cc1ccc(Nc2nc(CSc3nnc(-c4ccccc4)n3C)cs2)cc1 |

(listing goes on)
| HPGD inh | Molecule |
| --- | --- |
| -5% | COc1ccccc1C(=O)NC(CCSC)C(=O)OCC(=O)c1ccc[nH]1 (configuration not stated) |
| ? | CC(=O)N1CCN(c2nc(-c3ccco3)c3c(c2C#N)CC(C)(C)SC3)CC1 |
| -7% | Cc1sc2ncnc(N[C@@H](Cc3c[nH]c4ccccc34)C(=O)O)c2c1C |
| -12% | CC(O)C(=O)N/N=C/c1cccc2ccccc12 (configuration not stated) |
| -6% | COc1cccc(C2C(C(=O)c3cc4ccccc4o3)=C(O)C(=O)N2c2cc(C)on2)c1OC (configuration not stated) |
| 18µM* | S=c1[nH]nc(-c2cccc(Cl)c2)n1Cc1ccccc1 |
| -11% | Cc1ccc(-c2cc(-c3ccccc3)[nH]c(=S)c2C#N)cc1 |
| -23% | COc1cc(C=O)cc(OC)c1OS(=O)(=O)c1ccc(NC(C)=O)cc1 |
| -11% | CC(C)CC(NS(=O)(=O)c1ccc2c(c1)oc(=O)n2C)C(=O)NCc1cccnc1 (configuration not stated) |
| ? | CSc1nnc(-c2cc3c(-c4ccccc4)nn(C)c3s2)n1C |
| -13% | COC(=O)c1ccccc1NC(NC(=O)c1ccco1)C(=O)c1ccccc1 (configuration not stated) |
| -29% | O=C(COc1cccc(Cl)c1)Nc1ccc2c(c1)CCC2 |
| -23% | O=C(Nc1ccc2c(c1)OCO2)c1ccc(Br)s1 |
| -2% | COc1ccc(N(C(C)=O)S(=O)(=O)c2cc(OC)ccc2OC)cc1 |
| -12% | COc1ccc(C2(NC(C)=O)CCN(C(=O)CCC(=O)O)CC2)cc1 |
| -17% | Cc1nn(Cc2cccc(C(=O)NC34CC5CC(CC(C5)C3)C4)c2)c(C)c1Br |
| -9% | Cn1c(=O)c2c(nc(Sc3ncccn3)n2Cc2ccc(Cl)cc2)n(C)c1=O |
| -10% | Cc1nc(N2CCN(S(=O)(=O)c3ccccc3)CC2)c2c3c(sc2n1)CC(C)CC3 (configuration not stated) |
| -3% | COc1ccc(NC(=S)N2CCN(C(c3ccccc3)c3ccccc3)CC2)cc1OC |
| -8% | CC[n+]1c(/C=C/C=C/N(C(C)=O)c2ccccc2)sc2cc(OC)ccc21 |
| -5% | O=C(CO/N=C\c1ccccc1)Nc1ccccc1C(=O)N1CCOCC1 |
| ? | Cc1ccc(NC2=C(N3CCOCC3)C(=O)c3ccccc3C2=O)cc1 |
| 35µM* | COc1ccc(C(=O)N2CCC[C@@]3(CCN(Cc4ccncc4)C3)C2)cc1 |
| -15%&-16% | COc1cc(=O)n(C)c2c(OCC(O)C(C)(C)O)cccc12 (configuration not stated) |
| -2% | O=S(=O)(Nc1ccc(F)cc1)N1CCCCCC1 |
| -2% | COc1cc2cc(C)nc(Cc3cccc4ccccc34)c2cc1OC |
| -18% | CCOc1ccc2c(=O)c(Oc3ccccc3OCC)coc2c1 |
| -7% | COc1ccccc1NC(=O)CCN1C(=O)C2CC=C(Cl)CC2C1=O (configuration not stated) |
| -23% | CC1CCCC(NC(=O)COC(=O)CSc2ccc3ccccc3c2)C1C (configuration not stated) |
| -5% | O=C1C2CC=CCC2C(=O)N1CNc1ccccc1 (configuration not stated) |

Some of the entries above in a different format.
Compound	HPGD inh
COc1ccc(N(C(C)=O)S(=O)(=O)c2cc(OC)ccc2OC)cc1	-2%
Cc1nc(N2CCN(S(=O)(=O)c3ccccc3)CC2)c2c3c(sc2n1)CC(C)CC3 (configuration not stated)	-10%

(continued)
| HPGD inh | Molecule |
| --- | --- |
| -14% | O=C(CCc1nc2ccccc2c(=O)[nH]1)OCc1ccc(-c2ccccc2)cc1 |
| -26% | CCOc1ccc(OCC)c(NC(=O)CN(C)S(=O)(=O)c2cccc3nsnc23)c1 |
| -6% | COC(=O)CC1=C(C)C(=O)CC2C(C)(C)CCCC12C (configuration not stated) |
| -16% | O=C(O)CC1=C(O)C(=O)N(c2ccccc2)C1c1ccccc1 (configuration not stated) |
| -8% | Cc1cccc(OCCSc2ncnc3nc[nH]c23)c1 |
| -10% | CCCNCCC(c1ccco1)c1ccccc1OC (configuration not stated) |
| -7% | CC(C)CNC(=O)c1ccccc1NC(=O)CCSc1ccccc1 |
| -3% | CC(=O)N(C)c1ccc(NC(=O)c2ccccc2C(=O)O)cc1 |
| -4% | CC1CC(C)CN(CCCNC(=O)Cn2ncn3cccc3c2=O)C1 (configuration not stated) |
| -5% | CCNC(=S)NNC(=O)c1cc(C)nc2ccccc12 |
| 8.9µM* | CCn1c(=O)c([N+](=O)[O-])c(NCCc2ccc(OC)c(OC)c2)c2ccccc21 |
| -17% | CC1CC(C)CN(c2ncc3c(n2)CC(c2ccc(Cl)cc2)CC3=O)C1 (configuration not stated) |
| ? | COc1ccc(/C=N/NC(=O)c2ccc(N(C)S(=O)(=O)c3ccccc3)cc2)cc1OC |
| ? | c1cncc(-c2nnc(-c3ccco3)o2)c1 |
| -7% | Cc1cc(C)n(-c2ccc(C(=O)OCC(=O)NCc3ccco3)cc2)n1 |
| ? | Cc1ccc(C(=O)Nc2nnc(-c3ccc(C(C)(C)C)cc3)s2)cc1 |
| 7% | CCOC(=O)c1cccc(NC(=O)Cn2cnc3c2c(=O)n(C)c(=O)n3C)c1 |
| -11%&-12%&-11% | Clc1cccc(Cl)c1NC1=NCCN1 |
| -8% | CCOC(=O)N1CCN(c2c(Nc3cc(C)[nH]n3)c(=O)c2=O)CC1 |
| ? | COc1ccc(-c2nnc(SC(C(=O)c3c[nH]c4ccccc34)c3ccccc3)n2N)cc1OC (configuration not stated) |
| ? | O=C(N/N=C/c1ccc(F)c(F)c1)c1cc2c(s1)-c1ccccc1CC2 |
| ? | COc1ccc(/C(N)=N/OC(=O)c2cc(-c3ccccc3)nc3ccccc23)cc1 |
| -24% | O=C(CSc1nnc(COc2ccccc2)n1Cc1ccco1)NCc1ccco1 |
| -14% | Cc1ccc(NC2=C(C(=O)c3ccccc3)N(C)S(=O)(=O)c3ccccc32)cc1 |
| -13% | Cc1ccc(S(=O)(=O)N2CCN(CC(=O)N/N=C/c3ccc(Br)s3)CC2)cc1 |
| -1% | CCC(=O)N1CCN(c2ccc(NC(=O)c3c(F)c(F)c(OC)c(F)c3F)cc2)CC1 |
| -21% | N#CCCCSc1ncccc1-c1nc2ccccc2[nH]1 |
| -18% | O=C(NC1CCCC1)C(c1ccncc1)N(Cc1cccs1)C(=O)c1csnn1 (configuration not stated) |
| -28% | COc1ccc(OCCCC(=O)NCCc2ccccc2)cc1 |

Sorted by heavy-atom count (lowest first): 14 of the compounds above
| HPGD inh | Molecule |
| --- | --- |
| -11%&-12%&-11% | Clc1cccc(Cl)c1NC1=NCCN1 |
| ? | c1cncc(-c2nnc(-c3ccco3)o2)c1 |
| -5% | CCNC(=S)NNC(=O)c1cc(C)nc2ccccc12 |
| -21% | N#CCCCSc1ncccc1-c1nc2ccccc2[nH]1 |
| -28% | COc1ccc(OCCCC(=O)NCCc2ccccc2)cc1 |
| -8% | CCOC(=O)N1CCN(c2c(Nc3cc(C)[nH]n3)c(=O)c2=O)CC1 |
| -4% | CC1CC(C)CN(CCCNC(=O)Cn2ncn3cccc3c2=O)C1 (configuration not stated) |
| -17% | CC1CC(C)CN(c2ncc3c(n2)CC(c2ccc(Cl)cc2)CC3=O)C1 (configuration not stated) |
| -13% | Cc1ccc(S(=O)(=O)N2CCN(CC(=O)N/N=C/c3ccc(Br)s3)CC2)cc1 |
| -14% | Cc1ccc(NC2=C(C(=O)c3ccccc3)N(C)S(=O)(=O)c3ccccc32)cc1 |
| ? | COc1ccc(/C(N)=N/OC(=O)c2cc(-c3ccccc3)nc3ccccc23)cc1 |
| -1% | CCC(=O)N1CCN(c2ccc(NC(=O)c3c(F)c(F)c(OC)c(F)c3F)cc2)CC1 |
| ? | COc1ccc(/C=N/NC(=O)c2ccc(N(C)S(=O)(=O)c3ccccc3)cc2)cc1OC |
| ? | COc1ccc(-c2nnc(SC(C(=O)c3c[nH]c4ccccc34)c3ccccc3)n2N)cc1OC (configuration not stated) |
